# High-throughput results deposited in PubChem BioAssay by National Center for Advancing Translational Sciences (NCATS).
# RE007 growth inh = qHTS Assay for Inhibitors of the HIV-1 protein Vpr. S. pombe RE007 Vpr strain, BacTiter-Glo ATP luminescence, 24 h; control for the full effect not named in the record. Potency, µM (series often up to 92.2 µM), for inactives: top-dose activity change, negative = less growth. 0.21% of 360,000 active; active = well fitted falling curve with a large enough effect; inconclusive = small, poorly fitted or top-dose-only effect; inactive = no such curve, though single readings can be large or run the other way;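 further: on the % scale 0 is the no-effect control and ±100 the full control effect; nearly all actives have a fitted effect of over 50% in size; the assay follows cell death caused by Vpr and the record does not say whether a fall means rescue or toxicity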
#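 Fission yeast strain RE007, carrying one chromosomally integrated HIV-1 vpr copy, was seeded at OD 0.01 in PMG+AL medium with 23 nL pinned compound. After 24 h at 30 °C and 99% humidity, viability was read by BacTiter-Glo luminescence.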
# StopGo reporter = High Throughput Screening for Foot and Mouth Disease Virus Antivirals; Potency, µM (titrated, usually from 57.9 µM), for the others: top-dose signal change, negative = less light; human cells with a luciferase reporter of 2A StopGo recoding; control for the full effect not named in the record; 1.2% of 410,000 active; active = well fitted falling curve with a large enough effect; inconclusive = small, poorly fitted or top-dose-only effect; inactive = no such curve, though single readings can be large or run the other way; tested in HEK293T cells; further: on the % scale 0 is the no-effect control and ±100 the full control effect; nearly all actives have a fitted effect of over 45% in size; luciferase light after 4 h
# SARS PLP yeast = qHTS of Yeast-based Assay for SARS-CoV PLP | S. cerevisiae expressing SARS-CoV PLpro, growth rescue; control for the full effect not named in the record | Potency, µM (series often up to 32.9 µM), inactives show at the highest dose activity, positive = growth rescue | 0.19% of 330,000 active | AID 485353, 2010; active means well fitted rising curve with a large enough effect; inconclusive means small, poorly fitted or top-dose-only effect; inactive means no such curve, though single readings can be large or run the other way; further: 0% is about no effect; nearly all actives have a fitted effect of over 55% in size; growth read by luminescence after 48 h
# Starred values were filed as active, the others as inactive; ? = inconclusive; [ ] = dose if it differs, or a comment. Potency means the concentration at half of the fitted maximal effect. The list is partial; count on the stated rates, not on these rows.
# Fields – RE007 growth inh | StopGo reporter | SARS PLP yeast
- O=C(CCNC(=O)OCC1c2ccccc2-c2ccccc21)NOCc1ccccc1
→ -1% | -11% | -1%
- O=c1c2nccnc2[nH]c(=S)n1Cc1ccccc1Cl
→ 9% | 11% | 0%
- CC[C@@]1(C(=O)OC)N[C@H](CN(C)C(=O)c2ccc(F)cc2)[C@@H]2C(=O)N(Cc3ccccc3)C(=O)[C@@H]21
→ -1% | -22% | -3%
- COC(=O)C1=C(c2cccc(OCc3ccccc3)c2)C[C@@H]2CC[C@H]1N2C(=O)NCc1ccc([N+](=O)[O-])cc1
→ 1% | -14% | 0%
- Cc1ccc(C)c(S(=O)(=O)Nc2ccc(S(=O)(=O)Nc3ncccn3)cc2)c1
→ -9% | 10% | 8%
- Cc1ccc(C)c(OCC(=O)N2CCN(c3ncccn3)CC2)c1
→ 19% | -9% | 2%
- CC(N=C1NS(=O)(=O)c2ccccc21)C(=O)OCC(=O)N(C)C1CCS(=O)(=O)C1 (stereo not drawn)
→ -2% | -1% | -6%[6.58 µM]
- COc1ccc(/C=C/C(=O)OCC(=O)Nc2ccc3c(c2)OCO3)cc1
→ 3% | 9% | 5%
- Cc1cccc(C(=O)NC(C(=O)Nc2cccc(S(=O)(=O)N3CCCC3)c2)C(C)C)c1 (stereo not drawn)
→ 2% | 15% | -3%
- CCOc1ccc2oc(C(=O)Nc3nccs3)c(C)c2c1
→ 10% | 28% | -1%
- CC1CCc2sc(C(=O)NC3CCCCC3)cc2C1 (stereo not drawn)
→ 10% | 60%[activator] | 1%
- Cc1ccc(CNC(=O)c2ccc(N3CCC4(CC3)CC(c3cccc(Br)c3)=NO4)c(NC(=O)c3ccco3)c2)cc1
→ -3% | -3% | -3%
- CC1CCC2(CC1)NC(=O)N(CC(=O)NCc1ccc(F)cc1)C2=O (stereo not drawn)
→ -3% | -9% | 6%
- COc1ccc(-n2c(=O)c3c(C)c(C)sc3n(Cc3cccc(F)c3)c2=O)c(OC)c1
→ -10% | -13% | 2%
- CCC(Cc1ccccc1)NC(=O)Cn1ncc2ccsc2c1=O (stereo not drawn)
→ 24% | -14% | 3%

# Entries listed so far containing an aryl methoxy group (2):
# Fields – RE007 growth inh | StopGo reporter | SARS PLP yeast
- COc1ccc(/C=C/C(=O)OCC(=O)Nc2ccc3c(c2)OCO3)cc1
→ 3% | 9% | 5%
- COc1ccc(-n2c(=O)c3c(C)c(C)sc3n(Cc3cccc(F)c3)c2=O)c(OC)c1
→ -10% | -13% | 2%

# (list continues)
# Fields – RE007 growth inh | StopGo reporter | SARS PLP yeast
- CN(C)CCCNC(=O)CC1C[C@H](C(=O)N2CCCCC2)[C@@]2(CCc3ccccc3)c3[nH]c4ccccc4c3CCN2C1=O (stereo partly drawn)
→ -12% | -7% | -1%
- Cc1ccccc1C(=O)Nc1ccnc(-c2ccncc2)n1
→ 3% | 0% | -3%
- NS(=O)(=O)c1ccc(CCNC(=O)c2cc(-c3ccco3)nc3ccccc23)cc1
→ -2% | 0% | -13%
- COc1ccc(S(=O)(=O)N2CCN(C(=O)CC3CC4CCC3C4)CC2)cc1 (stereo not drawn)
→ 11% | ? | -1%
- Cc1ccc(S(=O)(=O)N2CCOCC2)cc1C(=O)NCc1ccccc1CN1CCCC1
→ 4% | -9% | -4%
- CC1CN(CC(=O)Nc2cc(S(=O)(=O)N3CCCC3)ccc2Cl)CC(C)O1 (stereo not drawn)
→ -12% | -21% | 2%
- CC1CCN(C(=O)COC(=O)/C=C/c2ccco2)CC1
→ -3% | 58%[activator] | 2%
- COCCOC(=O)CSc1ncccc1-c1nc2cc(C)c(C)cc2[nH]1
→ ? | 54%[activator] | -13%
- Cc1cccc(OCC(=O)N(Cc2nnc(-c3ccccc3Cl)o2)C2CC2)c1
→ 3% | 38%[activator] | -8%
- O=C(OCC(=O)N1N=C(c2ccc(Cl)cc2)CC1c1ccco1)c1cccnc1 (stereo not drawn)
→ -6% | -1% | 0%
- Nc1c(N(Cc2ccccc2)C(=O)COc2ccc(F)cc2Cl)c(=O)[nH]c(=O)n1Cc1ccccc1
→ -1% | -22% | 3%
- CSCC[C@@H](C(=O)NCCCCCCCCCCC(=O)N1CCN(C(=O)OC(C)(C)C)CC1)n1cc(CCO)nn1
→ 4% | ? | -2%
- CC(C)c1ccc(S(=O)(=O)N2CCN(CC(O)CN3CCOCC3)CC2)cc1 (stereo not drawn)
→ 0% | -14% | -5%
- O=C(CSc1ccc(Br)cc1)NCC1CCCO1 (stereo not drawn)
→ -4% | 5% | -5%
- Cc1noc(C)c1S(=O)(=O)N(C)C[C@H]1Oc2ccc(NC(=O)CCC(F)(F)F)cc2C(=O)N([C@H](C)CO)C[C@@H]1C
→ -8% | -14% | 12%
- CCN(CC)C(=O)c1cccc(NC(=O)c2ccccc2OCc2c(C)noc2C)c1
→ -3% | 29% | 0%
- CCN(CC(=O)NCc1ccc(F)cc1)CC(=O)Nc1cc(S(=O)(=O)N(C)C)ccc1C
→ -8% | ? | -1%
- Cc1ccc(C(=O)Nc2ncccc2C)cc1S(=O)(=O)N1CCOCC1
→ -5% | -1% | 1%
- COC1=CC2[C@@H]3Cc4ccc(OC)c(O)c4[C@]2(CCN3C)CC1=O (stereo partly drawn)
→ 6% | -13% | -1%
- CC(C)C(C)NC(=O)CSc1ccc(S(=O)(=O)N2CCOCC2)cn1 (stereo not drawn)
→ 4% | -7% | 4%
- CCOC(=O)C1=CN(Cc2ccco2)S(=O)(=O)NC1c1ccc(Br)cc1F (stereo not drawn)
→ 15% | -22% | -22%
- CCN(C(=O)Cn1c(=O)oc2ccccc21)c1c(N)n(Cc2ccccc2)c(=O)[nH]c1=O
→ -22% | -5% | -1%
- Cc1c(NC(=O)c2cccc(NC(=O)COc3ccccc3)c2)c(=O)n(-c2ccccc2)n1C
→ 5% | -11% | -4%
- O=C(COc1ccccc1)OCc1cc(-c2ccco2)on1
→ -5% | -21% | -4%
- O=C(O)CCCCn1c(SCc2ccccc2Cl)nc2ccsc2c1=O
→ 16% | -8% | -3%
- N#Cc1ccc(CN2CCN(C(=O)c3cc(C4CC4)nn3-c3ccccc3)CC2)cc1
→ -22% | ? | 3%
- Cc1[nH]nc(SCC(=O)N(C)c2ccccc2)c1[N+](=O)[O-]
→ 1% | 19% | -1%
- O=c1cc(N2CCCCCC2)[nH]c(=O)n1-c1ccccc1Cl
→ 2% | -4% | 7%
- O=C(CN1C(=O)NC2(CCCCC2)C1=O)Nc1ccc2c(c1)OCCCO2
→ 2% | 76%[activator] | -7%
- COC(=O)c1ccc(NC(=O)C2CCN(C(=O)Nc3ccccc3)CC2)cc1
→ -7% | 16% | 10%
- CCN(CC)C(=O)[C@H]1CC(CC(=O)NCC23CC4CC(CC(C4)C2)C3)C(=O)N2CCc3c([nH]c4ccccc34)[C@]12C (stereo partly drawn)
→ 11% | ? | 0%
- NNC(=O)c1cc(-c2ccco2)[nH]n1
→ 9% | -4% | -2%
- COc1cc(C(=O)/C=C/c2cccnc2)c([N+](=O)[O-])cc1OC
→ -21% | 14µM* | 4%
- COc1ccc(CNC(=O)CCC(=O)c2ccccc2)cc1
→ 2% | 8% | -4%
- CC(=O)c1ccc(N2CCN(C(=O)C3CCN(C(=O)Nc4ccccc4)CC3)CC2)cc1
→ -12% | ? | 0%
- O=C(OCCCc1cc2ccccc2c(=O)o1)c1ccc(F)cc1
→ -13% | -20% | -1%
- CC(C)CC1NC(=O)N(CC(=O)Nc2cccc(Br)c2)C1=O (stereo not drawn)
→ 12% | -16% | 5%
- CC(=O)c1c(OC(=O)c2ccccc2)ccnc1C(F)(F)F
→ 5% | -13% | 1%
- CCCNC(=O)c1ccc(N2CCC3(CC2)CC(c2cccc(Br)c2)=NO3)c(NC(=O)c2ccco2)c1
→ -3% | 0% | 2%
- COc1ccc(OCC(=O)OCC(=O)c2ccc(OC)c(F)c2)cc1
→ 0% | -16% | 0%
- Cc1ccc(-c2cn(CCN)c(-c3ccncc3)n2)cc1
→ 15% | -13% | 0%
- CC(=O)c1ccc(NC(=O)COC(=O)Cc2ccsc2)cc1
→ 4% | 0% | -6%
- CC(C)c1ccc(-c2csc(NC(=O)c3cccs3)c2C(=O)O)cc1
→ 11% | -2% | 1%
- COc1ccc(-c2sc3ccccc3c2/C=C/c2ccncc2)cc1
→ -5% | -25% | -1%
- COc1cc2c(cc1OC)CN(C(=O)C1CCCN(C(=O)c3ccc(Cl)cc3)C1)CC2 (stereo not drawn)
→ 6% | -10% | 6%
- COc1ccc([C@H]2CC(=O)C=C(c3cc(F)ccc3F)C2)cc1OC
→ -4% | 32µM* | 2%
- COC(=O)C1CCN(CC(=O)Nc2ccc(OC)c(Cl)c2)CC1
→ 7% | 2% | 1%
- CC1(c2ccc3c(c2)OCCO3)NC(=O)N(CC(=O)Nc2c(F)cccc2F)C1=O (stereo not drawn)
→ 4% | -6% | 2%
- CCC(=O)CN(Cc1cc(OC)ccc1OC)S(=O)(=O)c1ccccc1Br
→ -16% | -5% | -1%
- CCOc1cc(/C=C2/N=C(c3ccc4c(c3)OCO4)OC2=O)ccc1OC(C)=O
→ -2% | 40%[activator] | -1%
- COc1ccc2[nH]c3c(c2c1)CCN1C(=O)C(CC(=O)NCCCn2ccnc2)C[C@H](C(=O)N2CCOCC2)[C@@]31C (stereo partly drawn)
→ -12% | -16% | -5%
- Cc1ccc(S(=O)(=O)N2CCCCC2)cc1NC(=O)Cn1cc(C(F)(F)F)ccc1=O
→ 5% | -26% | 5%[6.58 µM]
- CCCN(CC(=O)Nc1ccccc1C)C(=O)c1ccc2[nH]c3c(c2c1)CC(C)CC3 (stereo not drawn)
→ 27% | ? | -8%
- ClCC1NCC(c2ccccc2Cl)c2c1[nH]c1ccccc21 (stereo not drawn)
→ 2% | -14% | -2%
- Cc1ccc(NC(=O)Nc2ccc(Cl)cn2)cc1
→ 2% | 98%[activator] | 1%
- O=C(C[C@H]1C/C=C\CC[C@@H](Cc2ccc(F)cc2)C(=O)OCCNC1=O)NCCO
→ 3% | -18% | -4%
- Cc1ccc(C(=O)OCn2nnc3ccccc3c2=O)cc1[N+](=O)[O-]
→ 12% | 9% | 0%
- Cc1ccc(NC(=O)COc2ccc(N(C)S(=O)(=O)c3ccc(F)cc3)cc2)cc1
→ -5% | ? | 3%
- CCCCC(=O)NNC(=S)NC(=O)c1ccc([N+](=O)[O-])cc1
→ 24% | -13% | ?
- COc1ccccc1NC(=O)c1ccc(NC(=O)COC(=O)c2ccc(O)cc2)cc1
→ 12% | -13% | -9%

# Continued.
# Fields – RE007 growth inh | StopGo reporter | SARS PLP yeast
- Cc1ccc(-c2cn(CCC(=O)O)c(-c3ccc(Cl)nc3)n2)cc1
→ 2% | -8% | -5%
- CCCCNC(=O)CCn1c(=O)c2ccccc2n(CC(=O)NCCc2ccc(OC)c(OC)c2)c1=O
→ -1% | -9% | 0%
- Cn1c(N)c(C(=O)CSc2nnc(-c3c[nH]c4ccccc34)n2C2CC2)c(=O)[nH]c1=O
→ 7% | -4% | 0%
- C=CCN1C(=O)C(CC(=O)O)SC1=Nc1ccc(N=Nc2ccccc2)cc1 (stereo not drawn)
→ 3% | -24% | 3%
- CCOC(=O)[C@H]1[C@H]2COc3ccc(C)cc3[C@@H]2N2C(=O)c3ccc(C)cc3NC(=O)[C@@]12C
→ 5% | -28% | 0%
- CC(C)(O)[C@@H]1CC(=O)[C@]2(C)[C@H](CC[C@@]3(C)[C@H](c4ccoc4)OC(=O)[C@H]4O[C@]432)[C@@]1(C)/C=C\C(=O)O
→ -13% | -18% | 18%
- CC1(C)C(=O)Nc2ccccc2N1C(=O)COC(=O)Cc1ccc(Cl)c(Cl)c1
→ 2% | -6% | -2%
- O=C(c1cccs1)N(c1cccc(Cl)c1)C1C=CS(=O)(=O)C1 (stereo not drawn)
→ 5% | 2% | 1%
- COc1ccccc1NS(=O)(=O)c1cc(NC(=O)C2=NNC(=O)CC2)ccc1C
→ -6% | 33%[activator] | 1%
- O=S(=O)(Nc1ccc2cn[nH]c2c1)c1ccc(C(F)(F)F)cc1
→ 3% | 8% | -10%
- CC(C)c1ccc(S(=O)(=O)N2CCN(C(C)C(=O)NC3CCCC3)CC2)cc1 (stereo not drawn)
→ -15% | -22% | 4%
- Cc1cc(C)c(S(=O)(=O)N2CCN(C(=O)C3COc4ccccc4O3)CC2)c(C)c1 (stereo not drawn)
→ 5% | -29% | 2%
- Oc1ccc2c3c1OC1c4oc5ccccc5c4C[C@@]4(O)[C@@H](C2)N(CC2CC2)CC[C@]314 (stereo partly drawn)
→ -10% | -2% | 1%
- Cc1ccc(S(=O)(=O)N(C)CC(=O)NCCCn2nc(C)cc2C)cc1
→ 6% | -6% | 0%
- O=C(/C=C\c1ccccc1)Oc1cccc2cccnc12
→ ? | -7% | -2%
- CN(Cc1cccs1)C(=O)c1cc(S(=O)(=O)N2CCOCC2)ccc1N1CCCC1
→ 6% | -10% | -1%
- CCCN(Cc1nnc(-c2cccs2)o1)C(=O)c1cc(S(=O)(=O)N2CCOCC2)ccc1C
→ -9% | -21% | -2%
